BJeLR viability – kills HRASV12-expressing BJeLR cells | BJeLR (HRASV12) viability, CellTiter-Glo ATP luminescence, 48 h; reference of the scale not given here | inhibition, % (test concentration not listed) | 300,000 tested, 0.17% active | AID 1554;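 active = replicate mean above 50%; inconclusive = above 50% but judged a plate artefact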;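 note: 50 nL library stock added to about 25 µL; numbers are from one replicate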
Bead autofluor – compound fluorescence in toxin protease inhibitor counterscreen. compound autofluorescence counterscreen, microsphere flow cytometry; active compounds read high. AID 624483. fluorescence intensity (concentration not given with the values). 360,000 tested, 3.1% active;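 active = at least 3 SD above the mean of all compounds, about 16000 in these data; inconclusive = too few beads counted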;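 note: 100 nL of 1 mM stock went into each well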
Mtb hypoxia rep – reduces hypoxia-regulated biosensor signal in M. tuberculosis; M. tuberculosis hypoxia-regulated fluorescent reporter, fluorescence; fluorescence inhibition, % (concentration not given with the values); 300,000 tested, 0.1% active; AID 1159583;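 active = 35 to 45% if threefold the growth effect, above 45% if 1.5-fold the growth effect; inactive = the rest, general growth blockers included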;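 note: wells of about 50 µL received 100 nL stock; 0% = vehicle wells and 100% = reference inhibitor wells; whole bacteria with a GFP reporter of the hypoxia response; strong numbers were not always called active; many hits fall short of the cut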
RN4220 kill – S. aureus RN4220 growth inhibition; inhibition, % (no concentration beside the values); 330,000 tested, 0.33% active; OD600, 16 h;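 active = z-score of -3 or lower and OD600 up to 0.18 on both plates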;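 note: plate controls were untreated cells for no effect and reference antibiotic for full effect; stock transfer was 100 nL into about 80 µL; one replicate is shown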
PrP UTR inh – suppresses PrP 5' UTR mRNA reporter expression. 340,000 tested, 0.35% active. inhibition, % (no concentration beside the values). AID 488862. cell-based PrP 5' UTR mRNA reporter, plate reader;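 active = every replicate at 50% or more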;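 note: 0 = median of the neutral control wells; tested in H4 reporter cells; numbers are from one replicate; inactives centre near -14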
ugtP null kill – compounds lethal to S. aureus RN4220 ugtP deletion mutant; 330,000 tested, 0.54% active; growth inhibition, % (concentration not given with the values); AID 1259309; OD600 growth, 16 h; some inactives read as strong as hits;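 active = z-score under -3 and OD600 up to 0.15 on both plates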;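 note: plate controls were untreated wells for no effect and antibiotic for full effect; wells of about 80 µL received 100 nL stock; the first replicate is given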
Mtb hypoxia rep growth – also measured in Mtb hypoxia rep; calls as there; growth inhibition, %; measured here: M. tuberculosis growth (absorbance);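 0% = vehicle and 100% = reference antibiotic; read after six days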
The depositor's hits bear a star; ? = inconclusive; nt = not tested or not shown.

1) CC(=O)Nc1ccc(S(=O)(=O)Nc2ccc(S(=O)(=O)N3CCCCCC3)cc2)cc1
2) CC(=O)Nc1sc(N/N=C\c2ccccc2)nc1-c1cccs1
3) C=CCn1c(O)c(C(C)=Nc2ccc(N(CC)CC)cc2)c(=O)[nH]c1=O
4) CN(CC(=O)Nc1c(Cl)cccc1Cl)C(=O)Cc1ccsc1
5) CCCn1c(O)c(/C=C2\C=NN=C2c2ccccc2)sc1=S
6) COc1cc2c(cc1OC)CN(C(=O)CN1C(=O)c3ccc([N+](=O)[O-])cc3C1=O)CC2
7) COc1ccc([N+](=O)[O-])cc1/C=N/NC(=O)CNC(=O)c1cccc(F)c1
8) Cc1cccc(CN2[C@@H](CC(C)C)COCCS2(=O)=O)c1
compound no.	1	2	3	4	5	6	7	8
BJeLR viability	6	0	-1	nt	-7	-16	0	1
Bead autofluor	3099	2724	6132	4052	25085*	6035	8081	4077
Mtb hypoxia rep	3	nt	-5	9	3	2	nt	2
Mtb hypoxia rep growth	1	nt	12	7	15	2	nt	-7
RN4220 kill	5.6	nt	5.0	1.2	-6.7	1.1	nt	14
PrP UTR inh	0	9	-26	-30	-15	-1	-16	-13
ugtP null kill	11	nt	1	-1	56	6	nt	6

Some of the entries so far, with tabs.
cpd	canonical_smiles	BJeLR viability	Bead autofluor	Mtb hypoxia rep	Mtb hypoxia rep growth	RN4220 kill	PrP UTR inh	ugtP null kill
3	C=CCn1c(O)c(C(C)=Nc2ccc(N(CC)CC)cc2)c(=O)[nH]c1=O	-1	6132	-5	12	5.0	-26	1
4	CN(CC(=O)Nc1c(Cl)cccc1Cl)C(=O)Cc1ccsc1	nt	4052	9	7	1.2	-30	-1
5	CCCn1c(O)c(/C=C2\C=NN=C2c2ccccc2)sc1=S	-7	25085*	3	15	-6.7	-15	56
6	COc1cc2c(cc1OC)CN(C(=O)CN1C(=O)c3ccc([N+](=O)[O-])cc3C1=O)CC2	-16	6035	2	2	1.1	-1	6

(continued)
9) CCOC(=O)c1ccc(NC(=O)CCC(CC)C(=O)O)cc1 (stereo unspecified)
10) COc1ccccc1-c1c(C)nn2c(N3CCCCCC3)cc(C)nc12
11) O=c1oc(-c2ccccc2F)nc2c1cnn2-c1ccccc1
12) Cc1onc(-c2c(F)cccc2Cl)c1C(=O)N1CCc2ccccc21
13) Cc1onc(-c2ccccc2)c1C(=O)OCC(=O)N(C)c1c(N)n(Cc2ccccc2)c(=O)[nH]c1=O
14) COc1ccccc1CNCC(=O)N1CC(=O)Nc2ccccc21
15) Cc1ccc(CC(=O)NCCC(=O)O)cc1
16) CC(=O)Nc1ccc(N(C(=O)CNC(=O)c2ccco2)C(C(=O)NC2CCCC2)c2ccco2)cc1 (stereo unspecified)
compound no.	9	10	11	12	13	14	15	16
BJeLR viability	-5	3	-2	-1	4	8	1	-5
Bead autofluor	4386	5548	8322	11106	?	5943	4542	3747
Mtb hypoxia rep	nt	-2	-2	-3	-8	6	0	1
Mtb hypoxia rep growth	nt	12	-2	-3	1	2	8	4
RN4220 kill	8.5	1.7	-1.1	13	2.0	4.0	1.7	1.1
PrP UTR inh	-1	-2	-12	-4	-17	-31	nt	0
ugtP null kill	6	16	-3	1	2	-2	5	1

Record cards (already shown).
CN(CC(=O)Nc1c(Cl)cccc1Cl)C(=O)Cc1ccsc1 is listed with BJeLR viability = nt; Bead autofluor = 4052; Mtb hypoxia rep = 9; Mtb hypoxia rep growth = 7; RN4220 kill = 1.2; PrP UTR inh = -30; ugtP null kill = -1
CC(=O)Nc1ccc(S(=O)(=O)Nc2ccc(S(=O)(=O)N3CCCCCC3)cc2)cc1 is listed with BJeLR viability = 6; Bead autofluor = 3099; Mtb hypoxia rep = 3; Mtb hypoxia rep growth = 1; RN4220 kill = 5.6; PrP UTR inh = 0; ugtP null kill = 11

The list goes on.
17) O=C(CNC(=O)c1ccccc1)NCC1COc2ccccc2O1 (stereo unspecified)
18) COc1ccc(CN(Cc2cccn2C)S(=O)(=O)c2ccc(C)cc2)cc1
19) COc1ccc(C(CNC(=O)c2ccc(N3CCCC3=O)cc2)N(C)C)cc1 (stereo unspecified)
20) CCN(CC)CCN(Cc1cc2ccc(C)cc2[nH]c1=O)C(=O)Nc1ccc(Cl)cc1
21) O=C(NCC1(N2CCOCC2)CCCCC1)c1ccc(S(=O)(=O)Nc2ccccc2F)cc1
22) COc1ccccc1CNC(=O)COc1ccc(S(=O)(=O)N2CCOCC2)cc1C
23) COc1ccc(NC(=O)CSc2nnnn2-c2ccccc2F)cc1
24) CC(=NNC(=O)C(N)=O)c1cccc(C(F)(F)F)c1
compound no.	17	18	19	20	21	22	23	24
BJeLR viability	-4	-1	-1	10	10	17	9	nt
Bead autofluor	3095	3801	3465	5266	4721	5099	2844	nt
Mtb hypoxia rep	5	4	2	16	-4	-5	-3	5
Mtb hypoxia rep growth	11	3	2	4	2	-2	-2	9
RN4220 kill	-3.8	2.7	1.1	-4.8	0.6	7.5	0.4	2.9
PrP UTR inh	1	-25	-12	-27	-2	-7	-21	nt
ugtP null kill	-2	29	2	21	-7	-3	8	-5

The list goes on, starting with the last 3 of the part before.
22) COc1ccccc1CNC(=O)COc1ccc(S(=O)(=O)N2CCOCC2)cc1C
23) COc1ccc(NC(=O)CSc2nnnn2-c2ccccc2F)cc1
24) CC(=NNC(=O)C(N)=O)c1cccc(C(F)(F)F)c1
25) O=c1c2ccccc2[se]n1-c1ccccc1
26) COc1ccc(-c2nc(CS(=O)CC(=O)NCc3ccc4c(c3)OCO4)c(C)o2)cc1 (stereo unspecified)
27) COc1ccccc1C(=O)C1CCCN(C(=O)c2cc(CC(C)C)nc(C)n2)C1 (stereo unspecified)
28) CCc1ccc(NC(=S)N(CCOC)C2CCN(C(C)=O)CC2)cc1
29) NC(=O)c1sc2nc3c(cc2c1N)CCC3
30) Cc1ccc(S(=O)(=O)CC(=O)Nc2nc(-c3ccccc3)cs2)cc1
31) Cc1cc(C)c(-c2csc(Cc3nc(-c4cc5ccccc5oc4=O)cs3)n2)cc1C
32) O=C(NN=Cc1cccc2nccnc12)c1ccccc1O
compound no.	22	23	24	25	26	27	28	29	30	31	32
BJeLR viability	17	9	nt	-1	8	1	-10	13	8	-7	nt
Bead autofluor	5099	2844	nt	7730	5904	2182	3400	3836	2181	2243	nt
Mtb hypoxia rep	-5	-3	5	nt	-4	0	-8	7	nt	2	16
Mtb hypoxia rep growth	-2	-2	9	nt	2	5	5	5	nt	0	8
RN4220 kill	7.5	0.4	2.9	nt	3.4	8.3	6.1	7.6	13	0.7	1.0
PrP UTR inh	-7	-21	nt	1	2	-20	-4	-37	-13	-14	nt
ugtP null kill	-3	8	-5	nt	5	10	4	5	19	9	1

33) COc1ccc(NC(=O)c2ccc(COc3ccccc3Br)o2)cc1OC
34) Cc1cc(C)c(C(=O)C(C)OC(=O)Cc2n[nH]c(=O)c3ccccc23)cc1C (stereo unspecified)
35) C=CCn1c(SCc2nc3ccccc3c(=O)[nH]2)nnc1-c1cc2cc(Cl)ccc2o1
36) CC(=O)NC1C(=O)N=C(SCC(=O)NCc2ccccc2)NC1=O (stereo unspecified)
37) CCCN1CCC(=O)N([C@H](CSc2ccc(OC)cc2)CC(C)C)CC1
38) COc1ccc(CN2CC(=O)N3C4c5cc(C)ccc5OCC4C(c4ccccc4)[C@]3(C)C2=O)cc1 (stereo partly specified)
39) COc1cc(NC2=CC(=O)CC(C)(C)C2)cc(OC)c1OC
40) FC(F)(F)c1ccc(NC2=NCCC2)cc1
compound no.	33	34	35	36	37	38	39	40
BJeLR viability	6	10	-13	10	4	nt	nt	3
Bead autofluor	2499	5645	2475	7282	3326	nt	11133	3443
Mtb hypoxia rep	0	8	3	3	nt	5	-4	-6
Mtb hypoxia rep growth	1	16	4	3	nt	6	-6	0
RN4220 kill	-1.4	1.3	11	5.2	nt	-2.3	-1.6	0.4
PrP UTR inh	-1	-11	-4	-12	-28	nt	-33	0
ugtP null kill	6	2	8	9	nt	-23	-3	3

41) CCCNC(=O)Cn1cnc2sc(C(=O)N3CCC4(CC3)OCCO4)c(C)c2c1=O
42) Cc1onc(-c2ccccc2Cl)c1C(=O)Nc1ccc(CN2CCCC2)cc1
43) CC1(C)Cc2c(C#N)c(N)n(-c3ccccc3)c(=S)c2CO1
44) O=C(NCc1ccccn1)C1CCC(CNS(=O)(=O)c2cccc3nsnc23)CC1 (stereo unspecified)
45) O=C(Nn1c(-c2ccc(Br)cc2)nc2ccccc2c1=O)c1ccc([N+](=O)[O-])cc1
46) Cc1cccc(C(=O)OCC(=O)N2CCC(c3ccccc3)=N2)c1O
47) COc1ccc2[nH]c(=O)c(CN(CCO)C(=O)c3cccs3)cc2c1
48) CC(C(=O)Nc1cccc([N+](=O)[O-])c1)N1C(=O)NC2(CCCC2)C1=O (stereo unspecified)
compound no.	41	42	43	44	45	46	47	48
BJeLR viability	4	-2	-1	6	-2	-20	3	8
Bead autofluor	5268	8927	4240	3415	1997	5622	22556*	6130
Mtb hypoxia rep	0	8	8	5	3	1	3	6
Mtb hypoxia rep growth	1	8	2	2	10	-1	5	5
RN4220 kill	1.2	-14	0.5	5.0	-1.9	1.8	-3.0	4.0
PrP UTR inh	-24	-3	-2	1	-13	-12	-8	-7
ugtP null kill	6	1	-2	5	5	-1	-8	12

49) CCCc1ccc(Oc2cn[nH]c2-c2ccc(O)cc2O)cc1
50) C=CCNC(=O)c1ccc(S(=O)(=O)CC)c(Cl)c1Cl
51) COc1ccc(Nc2nc(N)c(C(=O)c3ccc(OC)cc3)s2)cc1
52) CC(C(=O)Nc1ccc2c(c1)OCO2)n1cnc2c1c(=O)n(C)c(=O)n2C (stereo unspecified)
53) CCCC(=O)OCC(=O)Nc1ccccc1Sc1ccccc1
54) COc1ccc(S(=O)(=O)N2CCC(C(=O)N3CCOCC3)CC2)cc1OC
55) O=C(CNC(=O)c1ccc(F)cc1)NN=Cc1cn[nH]c1-c1ccccc1
56) Cc1c(Br)cc(-c2nnco2)cc1Br
compound no.	49	50	51	52	53	54	55	56
BJeLR viability	nt	-11	6	nt	-16	6	nt	1
Bead autofluor	nt	4675	3825	3962	2615	8728	nt	23447*
Mtb hypoxia rep	-4	10	14	1	8	-5	16	2
Mtb hypoxia rep growth	-6	5	10	0	0	-11	3	-2
RN4220 kill	67	5.2	5.3	0.3	5.2	1.7	5.0	4.5
PrP UTR inh	-7	-19	-7	-29	-4	-12	nt	-12
ugtP null kill	90*	0	-2	4	-3	-2	14	6

57) O=C1CCC/C1=C\c1ccccc1
58) Cc1cccc(C)c1N1C(=O)C2ON(c3ccccc3)C(c3ccncc3)C2C1=O (stereo unspecified)
59) CC(=O)OC(COc1cccc(C)c1)Cn1cnc2ccccc21 (stereo unspecified)
60) O=C(Cn1ncc2c([nH]c3ccccc32)c1=O)N1CCc2ccccc2C1
61) CC1CC(C)(C)CC2(C1)NC(=O)N(CC(=O)N1CCN(S(=O)(=O)c3cccc(F)c3)CC1)C2=O (stereo unspecified)
62) COc1ccc(-c2nc3ccccc3c(=O)n2CCCn2ccnc2)cc1
63) Cc1ccc(CNC(=O)CSc2nc3ccccc3[nH]2)cc1
64) Cc1ccc(C2C(C#N)=C(N)Oc3cc4c(cc32)OCO4)cc1 (stereo unspecified)
65) O=C(Cc1ccc(Br)cc1)NCCCn1ccnc1
66) Cc1ccc(CNC(=O)C2CCCN(c3ncnc4c3nc3n4CCCCC3)C2)cc1 (stereo unspecified)
67) Cc1c(O)nc(SCC(=O)Nc2nccs2)n(-c2ccccc2F)c1=O
compound no.	57	58	59	60	61	62	63	64	65	66	67
BJeLR viability	0	-6	6	-8	nt	nt	-3	7	-1	5	5
Bead autofluor	4113	22531*	3415	5706	2836	15204	4113	3242	4194	5377	?
Mtb hypoxia rep	2	1	7	4	11	1	-4	nt	20	0	12
Mtb hypoxia rep growth	2	3	11	-8	6	-5	-1	nt	11	-3	-8
RN4220 kill	11	2.2	4.3	2.1	2.4	2.1	-0.3	4.0	2.0	-1.0	4.6
PrP UTR inh	-20	-7	2	-22	-13	-1	-11	-13	-8	-12	-4
ugtP null kill	6	-3	6	-2	5	4	-4	0	3	5	0

Source: PubChem BioAssay

Hits appear at their usual frequency; overall some 3.9% were active at least once.
